Sa helicase inh: blocks Staphylococcus aureus DNA helicase | purified S. aureus helicase, fluorescence unwinding assay; about half of the hits fall short of the stated cut | inhibition, %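 (tested at about 80 µM)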 | actives 0.05% (n = 120,000) | AID 485395;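 active = both duplicates at 50% or more, or one of them with a favoured structure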;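 also: 0% = mean of negative control wells and 100% = mean of positive control wells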
MgrA-DNA mod: S. aureus MgrA-DNA binding modulation; inhibition, %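 (about 10 µg/mL by stock and volumes)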; actives 0.13% (n = 84,000); fluorescence polarization;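 active = above 50% in either of two replicates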;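 also: 0% = protein plus DNA without compound and 100% = DNA alone without protein; higher means less MgrA bound to DNA so lower polarization; one replicate is shown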
An asterisk follows results filed as active; · = no result given. A portion of the library. The share of hits here may be higher or lower than overall.

SMILES	Sa helicase inh	MgrA-DNA mod
CCOc1ccc2c(c1)C(SCC(=O)O)CC1(CCCC1)O2 (stereo unspecified)	-4.0	·
Cc1ccc(NC(=O)CN(C)C(=O)CSc2nc(C)cs2)cc1	-3.0	·
O=C(NCc1cccs1)C(CSCc1ccccc1)N1Cc2ccccc2C1=O (stereo unspecified)	5.0	·
COc1cc2c(C#N)c(N(C)CCc3ccc(OC)c(OC)c3)nc(N)c2c(N)n1	-19.0	·
O=C(CSc1ccc(Cl)cc1)c1cccs1	19.0	·
Cc1c(C(=O)N2CCCCCC2)sc2ncnc(N3CCN(c4ccccc4)CC3)c12	5.0	-1.9
CCCn1c2c(c(=O)[nH]c1=O)C(=O)C(C)N2 (stereo unspecified)	4.0	·
CSc1sc(C(=O)NC(C)C)c(-c2cccs2)c1C#N	·	-0.3
COc1cc(-c2nnc(COC(=O)c3ccc(-n4nc(C)cc4C)cc3)o2)cc(OC)c1OC	10.0	·
CCC1(C)NC(=O)N(/N=C/c2cccs2)C1=O (stereo unspecified)	-4.0	·
Fc1ccc(CNC2CC2)cc1	16.0	·
O=C(c1cc2ccccc2oc1=O)N(Cc1ccc(F)cc1)Cc1ccco1	-1.0	2.0
COCc1cc(C)nc2sc(C(=O)Nc3ccc(N4CCOCC4)cc3)c(N)c12	-13.0	·
CN(C)Cc1c2ccccc2cc2ccccc12	30.0	3.1
O=C(CC1C(=O)N(c2ccccc2)C(=S)N1NC(=O)c1ccncc1)NCCc1ccccc1 (stereo unspecified)	-12.0	0.6
Cc1cc(-c2ccccc2)nc(=O)[nH]1	-10.0	-1.6
Cc1ccc(Cn2nc(C)c(/C=C/C(=O)Nc3nnc(C4CC4)s3)c2C)cc1	-1.0	·
CC1(C)C=Cc2cc(/C(N)=N/O)ccc2O1	·	-1.4
CCN(CC)S(=O)(=O)c1cccc(C(=O)Oc2cccnc2)c1	-1.0	-0.7
COCCn1nnnc1CN1CCC(Cc2ccccc2)CC1	5.0	14.1

Overlap with the part before: six compounds, followed by the next part.
SMILES	Sa helicase inh	MgrA-DNA mod
O=C(CC1C(=O)N(c2ccccc2)C(=S)N1NC(=O)c1ccncc1)NCCc1ccccc1 (stereo unspecified)	-12.0	0.6
Cc1cc(-c2ccccc2)nc(=O)[nH]1	-10.0	-1.6
Cc1ccc(Cn2nc(C)c(/C=C/C(=O)Nc3nnc(C4CC4)s3)c2C)cc1	-1.0	·
CC1(C)C=Cc2cc(/C(N)=N/O)ccc2O1	·	-1.4
CCN(CC)S(=O)(=O)c1cccc(C(=O)Oc2cccnc2)c1	-1.0	-0.7
COCCn1nnnc1CN1CCC(Cc2ccccc2)CC1	5.0	14.1
COc1ccc(NC(=O)CN(C)S(=O)(=O)c2cccs2)cc1	8.0	·
COc1ccc(NC(=O)c2ccccn2)cc1OC	-3.0	·
O=C1NC(=S)S/C1=C\C=C\c1ccccc1	10.0	10.0
CCOC(=S)SCc1cn2ccc(C)cc2n1	7.0	1.2
O=C1CC(c2ccccc2)CC(O)=C1C=Nc1ccccc1Cl (stereo unspecified)	·	-3.2
Cc1ccc(OC(=O)c2sc3nc(-c4ccc(Cl)cc4)nn3c2C)cc1	·	-1.2
O=C(NCc1ccco1)c1ccc(Cn2c(SCc3ccccc3)nc3ccncc32)cc1	4.0	-2.6
C=C1SC(Nc2c(C)cccc2Cl)=NC12CCCCC2	·	-1.0
CC1CC(C)CN(C(=O)COC(=O)c2ccc(Cl)cc2)C1 (stereo unspecified)	11.0	·
COCCC(=O)C1=CSC2=C(C(=O)CC(C)(C)C2)C1c1ccncc1 (stereo unspecified)	6.0	-1.3
CC(=O)Oc1ccc(C(=O)NC2CCSC2=O)cc1 (stereo unspecified)	16.0	0.0
O=C(O)c1cc(Cl)ccc1S(=O)c1ccccc1CO (stereo unspecified)	15.0	·
CC(C)Cn1cc(NC(=O)N2CCN(c3ccccc3)CC2)c2ccccc2c1=O	9.0	·
CC1CC(C)CN(C(=O)CCNS(=O)(=O)c2ccc3[nH]c(=O)ccc3c2)C1 (stereo unspecified)	-22.0	·
N#Cc1ccccc1NS(=O)(=O)c1ccc(F)cc1	·	-0.8
Cc1cccc(OCC(O)CN2CC3(C)CC2CC(C)(C)C3)c1 (stereo unspecified)	8.0	·
N#CC(c1cccc(C(F)(F)F)c1)c1cccc(C(F)(F)F)c1	·	-0.2
COc1ccccc1C(=O)CSc1ccc(Cl)cc1	-17.0	0.3
Cc1cc(-n2c(C)cc(CNC(C)c3cccs3)c2C)no1 (stereo unspecified)	-12.0	·
CCOC(=O)C1=C(C)N=c2s/c(=C\c3cccc(O)c3)c(=O)n2C1c1cc(Br)c(OC)cc1OC (stereo unspecified)	·	-0.1
O=C(c1cccc(Br)c1)N1CCc2ccccc2C1	3.0	1.1
CC(C)CCNC(=O)C1c2ccccc2Oc2ccccc21	-5.0	0.8
Cc1cc(NC(=O)NC(=O)c2c(Cl)cccc2Cl)no1	·	-1.9
CCOC(=O)Cn1c2[n+](c3ccccc31)CC(O)CS2 (stereo unspecified)	7.0	-2.5
CN1C(=O)c2ccccc2C(C(=O)O)C1c1cccc(F)c1 (stereo unspecified)	3.0	·
COC(=O)CC1c2cc(OC)c(OC)cc2CCN1C(=O)c1cccc(C#N)c1 (stereo unspecified)	19.0	·
O=C(O)CN1Cc2ccccc2C1=O	·	-0.7
CC(C)(CC(=O)O)CC(=O)N1CCCc2ccccc21	·	-0.4
O=C1NC2=C(C(=O)NNC2)C(c2cccs2)N1 (stereo unspecified)	-8.0	·
Cn1c(-c2ccc3c(c2)OCO3)cc(=O)c2ccccc21	·	-0.9
Cc1cc(F)ccc1S(=O)(=O)Nc1ccc2oc(C)c(C(=O)OC(C)C)c2c1	-3.0	·
COc1ccc(/C=C(/Sc2n[nH]c(C)n2)C(=O)O)cc1OC	-18.0	·
COc1cc(C(=O)O)ccc1OC(C)C	11.0	-1.4
CN(C)c1cccc(N(C)C)c1CNC(=O)c1ccc(Cl)cc1	·	-1.1
O=C(NCCCN1CCCCC1)C1(S(=O)(=O)c2ccc(Cl)cc2)CC1	18.0	·
NNC(=O)c1cc2cc(OCc3ccccc3)ccc2[nH]1	·	-1.4
CC1=Nc2cc(C(=O)NCc3ccc(C)cc3)ccc2Sc2ccccc21	10.0	-0.4
CCOC(=O)c1c(Nc2nc(-c3cc4ccccc4o3)cs2)sc(C)c1C	-12.0	·
O=C(Nc1cc(Cl)cc(Cl)c1)NC1Cc2ccccc2C1	·	-2.3
O=C(c1ccc2nc3ccc(Cl)cc3c(=O)n2c1)N1CCCCCC1	1.0	·

5 of the entries above in order of their number in Sa helicase inh, lowest first:
SMILES	Sa helicase inh	MgrA-DNA mod
COc1ccc(/C=C(/Sc2n[nH]c(C)n2)C(=O)O)cc1OC	-18.0	·
CCOC(=O)c1c(Nc2nc(-c3cc4ccccc4o3)cs2)sc(C)c1C	-12.0	·
O=C(c1ccc2nc3ccc(Cl)cc3c(=O)n2c1)N1CCCCCC1	1.0	·
CCOC(=O)Cn1c2[n+](c3ccccc31)CC(O)CS2 (stereo unspecified)	7.0	-2.5
COC(=O)CC1c2cc(OC)c(OC)cc2CCN1C(=O)c1cccc(C#N)c1 (stereo unspecified)	19.0	·

New compounds follow
SMILES	Sa helicase inh	MgrA-DNA mod
CC(C)(C)c1ccc2c(c1)CN(C1CCCCC1)CO2	4.0	0.6
O=C(CN1C(=O)C2C3C=CC(C3)C2C1=O)NCCc1ccccc1 (stereo unspecified)	20.0	·
CN1CCN(CCSc2ccc(Cl)cc2)CC1	2.0	·
Nc1nonc1NC(=O)CSC1=NCCS1	6.0	1.1
CC(C)(C)c1nc2scc(-c3cccs3)c2c(=O)o1	·	-1.0
Cc1ccccc1C(=O)NNC1=NCCC1	-4.0	·
CN(C)S(=O)(=O)c1cccc(C(=O)N2CCc3ccccc3C2)c1	-1.0	0.0
O=C1C(c2ccccc2)=C(N=CNO)c2ccccc21	·	0.6
Cc1noc(C)c1CCNC(=O)C1CCN(c2ccccc2)C1=O (stereo unspecified)	-2.0	·
COc1ccc(C2C(C(=O)N3CCN(c4ccc(F)cc4)CC3)CCC(=O)N2c2ccc(OC)cc2)cc1 (stereo unspecified)	0.0	·
Cc1cccc(Nc2cc(=O)[nH]c(=O)[nH]2)c1C	16.0	-1.2
CCOC(=O)C1=C(C)N=c2s/c(=C\c3cc(Br)cc(OC)c3O)c(=O)n2C1c1ccccc1OC (stereo unspecified)	·	4.8
O=C1CNC(=S)N1Cc1ccco1	·	42.6
O=C(NC1=NN(c2ccccc2)CC1)Nc1ccccc1F	1.0	·
CCN1C(=O)/C(=C2\SC(=S)N(C(C)C)C2=O)c2ccccc21	12.0	2.8
CCCn1c(CNC(=O)CC)nc2ccccc21	5.0	0.6
Cc1sc2nc(CC#N)[nH]c(=O)c2c1C	-42.0	0.5
COc1cc2c3c(c1OC)C1(C=CC(=O)C=C1)CC3NCC2 (stereo unspecified)	-1.0	·
Cc1ccc(S(=O)(=O)c2c(C)cc(C)[nH]c2=O)cc1	·	-0.2
CCCCC(C(N)=O)C1=NC(C)(C)Cc2ccccc21 (stereo unspecified)	6.0	1.0

Of the compounds above, 2 have a tert-butyl group.
SMILES	Sa helicase inh	MgrA-DNA mod
CC(C)(C)c1ccc2c(c1)CN(C1CCCCC1)CO2	4.0	0.6
CC(C)(C)c1nc2scc(-c3cccs3)c2c(=O)o1	·	-1.0

Further records follow:
SMILES	Sa helicase inh	MgrA-DNA mod
Oc1[nH]c2ccccc2c1C=Nc1cccc(Cl)c1	-11.0	0.4
Cn1cccc1C(=O)OCC(=O)C12CC3CC(CC(C3)C1)C2	8.0	·
CC(C)CC(=O)Nc1c(-c2ccc(F)cc2)nc2ccccn12	3.0	·
COc1ccc(CC(=O)Nc2nnc(SCC(=O)c3ccccc3)s2)cc1	10.0	·
O=C(COC(=O)c1ccc(Cl)cc1NC(=O)c1ccc(Cl)cc1)c1ccccc1	·	0.8
COc1ccc(CC(N)C(=O)N[C@@H]2C(O)[C@H](n3cnc4c(N(C)C)ncnc43)O[C@@H]2CO)cc1 (stereo partly specified)	·	-4.5
Cc1nc2ccc3nc(NC(=O)c4ccc(S(=O)(=O)N5CCCC5)cc4)sc3c2s1	·	1.8
COc1cccc(-c2cc(C(=O)Nc3ccncc3)c3ccccc3n2)c1	·	0.3
Cc1ccc(OCC(=O)NN)cc1	12.0	·
CC(C)(C)c1ccc(NC(=O)c2ccc(C(C)(C)C)s2)cc1	·	-0.9
CCOc1ccc2oc(=O)cc(CN(C)Cc3ccccc3)c2c1	7.0	·
Cc1cc(C)n2cc(CN)nc2n1	-13.0	-2.3
CC12CCC(c3c(COC(=O)c4ccco4)nn(-c4ccccc4)c31)C2(C)C (stereo unspecified)	40.0	·
N#Cc1nccnc1N1CCN(c2ccccc2)CC1	·	-2.1
CCCNC(=O)c1ccc(CN2CC(=O)N3CCCCC3C2=O)cc1 (stereo unspecified)	9.0	·
O=C(Cn1ccn(-c2cccc3ccccc23)c(=O)c1=O)NCc1ccco1	-1.0	·
C=CCOc1ccc2[nH]c(C)c(C(=O)OCC)c2c1	·	-1.4
CCCn1cc(SCC(=O)Nc2cc(C)on2)c2ccccc21	-6.0	·
COc1ccc(-c2[nH]ncc2C(=O)NCCC(C)C)cc1	3.0	-0.1
N#Cc1cc(-c2ccccc2)c[nH]c1=O	·	-1.8
C/C(CCc1ccccc1)=N/NC(=O)c1ccc(O)cc1	1.0	0.7
CCOC(=O)c1ccc(NC(=O)c2cc3cccnc3n(C)c2=O)cc1	-1.0	·
CN(Cc1ccccc1Cl)C(=O)c1cnccc1C(F)(F)F	·	-1.9
COC(=O)c1ccc(NC(=O)c2cccc(C(=O)Nc3ccc(C(=O)OC)cc3)c2)cc1	8.0	0.9
CCOC(=O)C1CCN(C(=O)CSC2CCCCC2)CC1	-12.0	0.1
CC(C)CN(CC(C)C)S(=O)(=O)c1ccc2c(c1)CCCC(=O)N2	-21.0	·
COc1ccc(-c2noc(CN3CCC(Cc4ccccc4)CC3)n2)cc1	-10.0	·
CCCSc1nc(C2CC2)nc2c1c(=O)n(C)c(=O)n2CCC	32.0	·
COC(=O)c1c(C)oc(C)c1S(=O)(=O)NC(C)(C)C	·	-0.6
N#CCCn1cc(/C=C/C(=O)N2CCN(c3ncc(C(F)(F)F)cc3Cl)CC2)c2ccccc21	-6.0	·
O=C(CCc1ccc(C(F)(F)F)cc1)c1cc(F)ccc1OCc1ccccc1	·	-1.1
N#Cc1ccc(N2CCN(C(=O)C34CC5CC(CC(C5)C3)C4)CC2)c(F)c1	17.0	0.4
Cn1c(O)c(C=NCc2ccc3c(c2)OCO3)c(=O)[nH]c1=S	4.0	2.4
CCC(Sc1nncn2c1cc1occc12)C(=O)Nc1ccc(OC)c(Cl)c1 (stereo unspecified)	-46.0	·
CCc1ccc(NS(=O)(=O)c2ccc3c(c2)SC(C)C(=O)N3)cc1 (stereo unspecified)	2.0	4.7
COc1ccc(C2(C(=O)Nc3ccc(C)cc3)CCCC2)cc1OC	8.0	1.3
CSc1nc(N)c2ccccc2n1	-15.0	·
ON/C=N/c1nnc(Cc2ccc(F)cc2)s1	·	4.6
CCC1(C)Cc2ccccc2-c2nc3n(c(=O)c21)CC(O)CS3 (stereo unspecified)	14.0	1.4
CC1(C)CC2CC(C)(CN2C(=O)CSc2ncnc3ccccc23)C1 (stereo unspecified)	9.0	0.4
COC(=O)c1cccc(CSc2nnc(-c3ccccc3OC)n2N)c1	-5.0	·
COC(=O)C1=NOC2C(=O)N(c3ccccc3)C(=O)C12 (stereo unspecified)	10.0	·
[C-]#[N+]c1cc(-c2ccncc2)c(C)[nH]c1=O	·	0.3
CCOC(=O)c1cnc(N2CCCC2)nc1C1CCNCC1	28.0	·
CC(Nc1ccccc1)C1CC1 (stereo unspecified)	·	-1.3
O=C(NN=C1CCCCC1)C1CC1c1ccccc1 (stereo unspecified)	-12.0	1.2
N#C/C(=C/Nc1cccc(C(F)(F)F)c1)c1nc(-c2ccc3c(c2)OCO3)cs1	9.0	0.9
O=C(OC1CSC1)c1cccs1	-1.0	2.6
CC(C)Cn1c(CNC(=O)c2ccccc2)nc2ccccc21	-21.0	·
CS(=O)(=O)c1ccc(C(=O)NCc2ccccc2)cc1	-7.0	·
CC1CCN(C(=O)COC(=O)Cc2ccc(Br)cc2)CC1	-16.0	·
